KCNQ2 block: KCNQ2 potassium channel inhibitors, primary screen, cell-based, CHO-K1, FluxOR thallium flux, B-score (AID 2156); B-score at 10 µM; actives 1.1% (n = 310,000); 20 min; hits give low values; only compounds with negative scores are shown here; some inactives read as strong as hits; O88943;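 active means fluorescence ratio B-score at most minus 3 library SDs, with starting brightness B-score within 2 library SDs, cut at about -5.5 in these data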
Target sequence (O88943 whole entry, looked up): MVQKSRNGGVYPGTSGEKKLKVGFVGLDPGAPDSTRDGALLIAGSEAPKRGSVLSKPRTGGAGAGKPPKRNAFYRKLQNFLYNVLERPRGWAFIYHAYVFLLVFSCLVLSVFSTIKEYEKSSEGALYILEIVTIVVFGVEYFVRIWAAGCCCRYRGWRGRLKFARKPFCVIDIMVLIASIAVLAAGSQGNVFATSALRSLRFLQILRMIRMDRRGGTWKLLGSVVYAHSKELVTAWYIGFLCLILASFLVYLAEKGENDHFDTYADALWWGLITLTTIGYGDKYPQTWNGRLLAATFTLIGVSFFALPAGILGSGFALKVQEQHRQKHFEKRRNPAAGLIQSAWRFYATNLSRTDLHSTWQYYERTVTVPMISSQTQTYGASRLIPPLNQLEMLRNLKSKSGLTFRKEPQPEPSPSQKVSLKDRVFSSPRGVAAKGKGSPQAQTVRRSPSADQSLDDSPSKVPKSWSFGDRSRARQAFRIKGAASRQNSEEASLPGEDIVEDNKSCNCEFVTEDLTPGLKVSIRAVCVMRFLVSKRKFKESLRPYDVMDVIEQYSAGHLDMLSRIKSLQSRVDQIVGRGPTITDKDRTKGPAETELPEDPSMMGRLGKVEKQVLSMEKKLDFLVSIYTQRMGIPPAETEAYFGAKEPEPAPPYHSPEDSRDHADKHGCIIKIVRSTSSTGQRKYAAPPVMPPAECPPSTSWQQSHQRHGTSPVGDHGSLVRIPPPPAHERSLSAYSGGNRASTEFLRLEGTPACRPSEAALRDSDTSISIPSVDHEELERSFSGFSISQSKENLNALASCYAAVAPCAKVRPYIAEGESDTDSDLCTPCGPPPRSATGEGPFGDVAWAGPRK
KCNQ2 block baseline: further read-out of KCNQ2 block, marked with its call; B-score; measured here: initial fluorescence intensity artifact check;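 brightness before thallium and not channel activity; 0 = typical well and far values either way flag optical interference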
* marks the source's active call; other numbers are inactive results; i = inactive. A portion of the library; the hit share may differ from the screen's.

KCNQ2 block	KCNQ2 block baseline	molecule
i	1.61	Cc1ccc(C)c(NC(=O)C(OC(=O)c2ccc(NC(=O)CC#N)cc2)c2ccccc2)c1 (stereo not drawn)
i	0.6	CN(C(=O)c1ccc(Br)o1)C1CCCCC1
i	0.51	Nc1ccc2nc(CCCCc3nc4ccccc4[nH]3)[nH]c2c1
i	-0.41	O=C(c1cc(-c2ccncc2)nc2ccccc12)N1CCN(c2ccccn2)CC1
i	0.01	COc1cccc(-c2ccc(C#N)c(SCC(=O)NCCc3ccccc3)n2)c1
i	0.87	O=C(COc1ccc2ccccc2c1)NNC(=O)c1ccccc1
i	-2.77	CCOC(=O)N1CCC(n2c(SCC(=O)NCc3ccco3)nc3ccsc3c2=O)CC1
i	0.14	CCOc1cc(S(=O)(=O)NCc2ccncc2)ccc1Cl
i	2.88	COc1ccc(C(=O)N/C(=C/c2cccnc2)C(=O)NCc2ccco2)cc1OC
i	3.11	COc1ccc(C2C3=C(CC(C)(C)CC3=O)Nc3c2c(=O)[nH]c(=O)n3Cc2ccccc2)cc1 (stereo not drawn)
i	1.45	N#C/C(=C\c1ccc2c(c1)OCO2)C(=O)NCc1ccco1
i	-2.84	O=C(COc1ccc(Cl)cc1Cl)Nc1noc2ccccc12
i	0.57	CCc1nc(SCC(=O)c2c[nH]c3ccccc23)n[nH]1
i	1.66	COc1ccccc1OCc1cc(C(=O)N(C)CCC2CCCCO2)no1 (stereo not drawn)
-6.53*	1.04*	CC1=Nc2ccccc2N=C(NC(=O)CN2CCN(c3ccccc3)CC2)C1c1ccccc1 (stereo not drawn)
i	-0.07	O=C(CCC(=O)Nc1ccc(Cl)cc1Cl)NNC(=O)Nc1ccccc1
i	6.73	Cc1ccc(-c2[nH]c3cc(C(=O)NCCCn4ccnc4)ccc3c(=O)c2O)cc1
i	-0.58	CN(C(=O)COC(=O)C1c2ccccc2Oc2ccccc21)C1CCS(=O)(=O)C1 (stereo not drawn)
i	1.04	CCOC(=O)NC(=O)CSc1nnc(SCCC(=O)O)s1
i	-0.02	CCn1c(=O)c(=O)[nH]c2cc(C(=O)NCc3ccc(F)cc3)ccc21

Profiles, looked up by structure. Order of screens: KCNQ2 block, KCNQ2 block baseline
CN(C(=O)c1ccc(Br)o1)C1CCCCC1 as listed: i, 0.6
COc1ccccc1OCc1cc(C(=O)N(C)CCC2CCCCO2)no1 (stereo not drawn) as listed: i, 1.66
O=C(CCC(=O)Nc1ccc(Cl)cc1Cl)NNC(=O)Nc1ccccc1 as listed: i, -0.07

Ordered by number of heavy atoms (highest first): 7 of the compounds above
KCNQ2 block	KCNQ2 block baseline	molecule
i	0.01	COc1cccc(-c2ccc(C#N)c(SCC(=O)NCCc3ccccc3)n2)c1
i	0.87	O=C(COc1ccc2ccccc2c1)NNC(=O)c1ccccc1
i	0.51	Nc1ccc2nc(CCCCc3nc4ccccc4[nH]3)[nH]c2c1
i	-2.84	O=C(COc1ccc(Cl)cc1Cl)Nc1noc2ccccc12
i	0.14	CCOc1cc(S(=O)(=O)NCc2ccncc2)ccc1Cl
i	0.57	CCc1nc(SCC(=O)c2c[nH]c3ccccc23)n[nH]1
i	0.6	CN(C(=O)c1ccc(Br)o1)C1CCCCC1

The listing continues:
KCNQ2 block	KCNQ2 block baseline	molecule
i	-1.13	CC(Sc1ccc2c(c1)OCCO2)C(=O)Nc1ccc2c(c1)OCO2 (stereo not drawn)
i	2.34	Cc1cccc(OCC(=O)Nc2ccccc2N2CCCCC2)c1C
i	-0.1	Cc1cccc(NC(=O)CNC(=O)c2ccc3nc[nH]c3c2)c1C
i	-0.99	CC(=O)N(C)c1ccc(NC(=O)N2CCOCC2)cc1
i	0.41	CN(C(=O)c1ccc2c(c1)OCCO2)c1c(N)n(Cc2ccccc2)c(=O)[nH]c1=O
i	1.42	CSc1cccc(NC(=O)/C=C/c2cccc(Cl)c2)c1
i	-1.16	O=C(NCCCN1CCCC1=O)C(=O)NCC1OCCN1S(=O)(=O)c1ccc(Br)cc1 (stereo not drawn)
i	1.56	COc1ccccc1NC(=O)C1CCN(c2ncccn2)CC1
i	-0.61	Cc1ccc(-n2ncc(C#N)c2/N=C/N2CCN(C)CC2)cc1
i	0.7	Cc1ccccc1C(=O)NC(=S)Nc1ccccc1N1CCCC1
i	-0.71	Cc1cc(C)cc(N(CC(=O)NCCSc2ccccn2)S(=O)(=O)c2ccccc2)c1
i	-0.06	COc1ccc(CN2CCCC(CO)(Cc3ccc(F)cc3F)C2)cc1 (stereo not drawn)
i	-0.18	Cc1ccc(S(=O)(=O)N2CCN(C)CC2)cc1
i	-0.59	COc1ccccc1C(=O)Oc1ccc(C(C)(C)C)cc1
i	1.39	CC1=CCC2C(=O)N(c3cccc(C(=O)Nc4ccccc4Cl)c3)C(=O)C2C1 (stereo not drawn)
i	-1.16	COc1ccccc1NC(=S)N1C2CCC1CC(NC(=O)NC13CC4CC(CC(C4)C1)C3)C2 (stereo not drawn)
i	-2.22	Cc1cc(-c2ccc(C(C)C)c(S(=O)(=O)NCc3ccco3)c2)on1
i	-0.22	Cc1c(N=Cc2ccc[nH]2)c(=O)n(-c2ccccc2)n1C
i	0.57	COc1cccc(OC)c1-c1nn(-c2ncc(C(F)(F)F)cc2Cl)c(=O)o1
i	1.24	O=[N+]([O-])c1ccc(CN2CCN(c3ccccc3Cl)CC2)o1
i	0.02	CC(C)N(N=Nc1ccc([N+](=O)[O-])cc1)C(C)C
i	1.82	O=[N+]([O-])c1ccc2c(c1Nc1ccccc1Cl)=NC1(CCCCC1)N=2
i	-0.48	c1ccc(Cc2noc(CN3CCC(CN4CCOCC4)CC3)n2)cc1
i	0.74	CC(C)CC(NC(=O)c1ccc(Cl)cc1)C(=O)OCc1cc([N+](=O)[O-])cc2c1OCOC2 (stereo not drawn)
i	0.02	CC(=O)NC(=S)Nc1ccc2oc(=O)ccc2c1
i	0.29	Cc1cc(C)c(OCC(=O)Nc2nc(-c3ccccn3)cs2)c(C)c1
i	-0.02	CCOc1cc(S(=O)(=O)NCc2ccccc2)c(OCC)cc1-n1cnnn1
i	0.41	Cc1cc(C)cc(CC2CC(=O)N(c3ccc(Cl)cn3)C2=O)c1 (stereo not drawn)
i	0.02	Cc1cc(Nc2cccc([N+](=O)[O-])c2)c2cccc(C)c2n1
i	-0.85	COc1ccccc1-c1nc2ccccc2c(=O)n1O
i	0.61	O=C(O)c1ccccc1C(=O)NNc1ccc(Cl)cc1Cl
i	0.21	O=C(NCCc1ccccc1)C(=O)NC1CCCCC1
i	-0.14	CC(C)c1nc(CNC(=O)c2cc(COc3c(F)cccc3F)on2)cs1
i	0.6	N#C/C(=C\c1ccc(-c2ccccc2[N+](=O)[O-])o1)C(=O)N1CCOCC1
i	6.6	COc1ccccc1N1C(=O)C2C(C(=O)c3ccccc3)=NN(c3ccc(Br)cc3)C2C1=O (stereo not drawn)
i	0.77	COc1cc2c(cc1OC)C1(C)N(CC2)C(C(C)=O)=NN1c1ccc(Cl)cc1 (stereo not drawn)
i	0.18	CCCCNC(=O)C1C2C=CC(C2)C1C(=O)O (stereo not drawn)
i	1.72	CCn1cc([N+](=O)[O-])c(C(=O)N2CCCc3ccccc32)n1
i	0.46	CC(C)(C)c1csc(NC(=O)c2cccnc2Cl)n1
i	0.02	CC(C)(C)NC(=O)C(c1ccncc1)N(Cc1cccs1)C(=O)Cn1nnc(-c2ccc(F)cc2)n1 (stereo not drawn)
i	1	C=CCNc1ccc(F)c(F)c1N1CCCCCC1=O
i	-1.35	CSCC[C@H](NC(=O)NCCc1ccc(F)cc1)C(=O)O
i	0.18	OC1(c2ccc(Br)cc2)CCN(Cc2cccc(Br)c2)CC1
i	-2.6	O=C(c1cc(-c2ccncc2)nc2ccc(Cl)cc12)N1CCN(C(=O)C2CCCO2)CC1 (stereo not drawn)
i	-1.46	CCOC(=O)c1sc(N=NC2=C(O)CC(C)(C)CC2=O)c(C(=O)OCC)c1C
i	0.08	CCOc1ccc(CCNC(=O)COC(=O)c2cccnc2Cl)cc1OCC
i	0.46	Cc1nn(-c2ccccc2)c(C)c1C(=O)NCc1ccc(F)cc1
i	-0.35	CCOc1ccccc1NC(=O)NC1CC2CCCC(C1)N2Cc1nnnn1CCc1ccccc1 (stereo not drawn)
i	0.72	O=C(O)CCC(=O)Nc1sc2c(c1C(=O)Nc1cccc3ccccc13)CCCCC2
i	-1.08	CCCCC(=O)Nc1nnc(-c2ccco2)o1
i	0.34	CCOC(=O)Cn1c(CN2CCc3ccccc3C2)nc2c1c(=O)n(C)c(=O)n2C
i	-0.4	CCOc1cc(CNCc2ccncc2)cc(Br)c1OCc1ccc(F)cc1
i	0.02	C/C(=N\Nc1ccccc1)c1c(O)cc(C)oc1=O
i	-0.92	CCOc1ncccc1C(=O)Nc1ccc(OC)c(S(=O)(=O)N2CCCCC2)c1
i	1.52	CCOc1ccc(-n2nc3c(=O)n(CCN4CCCCC4)nc(C)c3c2C)cc1
i	-1.7	CCOc1ccc(CCNC(=O)c2ccc(C)c(N3CCCC3=O)c2)cc1OCC
i	-0.31	Cc1c(Cl)cccc1NC(=S)N1CCC(C(N)=O)(N2CCCCC2)CC1
i	11.4	Cc1cc(O)cc2c1C(=O)/C(=C/c1ccco1)O2
i	-0.43	O=C(CN1C(=O)CC(c2ccco2)Sc2ccccc21)NCc1ccc2c(c1)OCO2 (stereo not drawn)
i	1.12	CSCCC1NC2(C(=O)Nc3c(C)cc(Cl)cc32)[C@@H]2C(=O)N(C3CCCC3)C(=O)[C@H]12 (stereo partly drawn)

(cont.)
KCNQ2 block	KCNQ2 block baseline	molecule
i	-0.3	COc1cc(Br)c(CCNC(=O)Cc2ccccc2)cc1OC
i	0.52	Cc1cc(NC(=O)c2ccoc2C)no1
i	-2.54	N#CCc1nn(-c2ccc(F)cc2)c(N)c1C#N
i	0.03	Cc1ccc(C(=O)CC2C(=O)N(c3ccccc3)C(=S)N2c2ccccc2)cc1 (stereo not drawn)
i	1.91	O=C(CN1CCN(Cc2ccccc2)C1=O)NCc1ccc(Cl)cc1
i	-0.01	CC(OC(=O)CCN1C(=O)c2cccc([N+](=O)[O-])c2C1=O)C(=O)Nc1cc(Cl)cc(Cl)c1 (stereo not drawn)
i	0.13	Cc1cccc(Nc2nnc(SCC(=O)NCc3cccs3)s2)c1C
i	1.72	Cc1ccc(NC(=O)CN2C(=O)NC3(CCCc4ccccc43)C2=O)c([N+](=O)[O-])c1 (stereo not drawn)
i	-0.47	CCOC(=O)C1(CCc2ccccc2)CCN(C(=O)c2ccoc2)CC1
i	1.69	COc1ccc(C(=O)CCC(=O)N2CCN(c3ccc([N+](=O)[O-])cc3)CC2)cc1
i	-0.67	C[C@H](NC(=O)N1CCC(Cc2ccccc2)CC1)C(=O)O
i	0.02	CCOc1ccc(NC(=O)CCNC(=O)Cn2ccc3ccccc3c2=O)cc1
i	-2.07	O=C(NC(=S)NN1CCCCC1c1cccnc1)c1ccc(Br)cc1 (stereo not drawn)
i	-2.03	O=C(CSc1nnc(Cc2ccccc2)o1)NCCN1C(=O)CSC1=O
i	-0.03	CC(=O)c1cccc(N(CC(=O)Nc2ccc(F)cc2F)S(C)(=O)=O)c1
i	-0.62	Cn1ccnc1C(=O)c1cc(SCC(=O)N2CCOCC2)nc2ccccc12
i	0.4	CCN(CCn1cccn1)C(=O)c1ccc(OC2CCN(C(=O)COC)CC2)cc1
i	-0.73	O=C(CCC(=O)Nc1ccc(Cl)cc1Cl)N/N=C/c1ccc([N+](=O)[O-])o1
i	0.46	CCCNC(=O)c1c(CSc2ccccc2)noc1C(=O)NCc1ccccc1
i	-0.03	Cc1cc(C)n(-c2ccc(NC(=O)C3CCCCN3C(=O)c3ccoc3C)cc2)n1 (stereo not drawn)
i	-1.34	CCOC(=O)/C=C1\SCC(=O)N1CC(=O)NCCOC
i	1.21	COc1ccc(S(=O)(=O)NCC2CCCN(Cc3ccccc3C)C2)cc1 (stereo not drawn)
i	0.54	COc1cccc(C(=O)N(Cc2cc3cc(C)ccc3[nH]c2=O)C(C)C)c1
i	2.37	O=C(Oc1cccc2ccccc12)c1ccncc1
i	-0.92	COC(=O)[C@H](CC(C)C)NC(=O)N1CCN(c2cccc(C(F)(F)F)c2)CC1
i	-0.12	S=c1[nH]nc(-c2ccccc2Cl)n1/N=C/C=C/c1ccco1
i	0.4	COc1ccc(CNC(=O)COc2ccc(S(=O)(=O)N3CCCCC3)cc2)cc1
i	1.56	Cc1ccc(CN2CCN(CC(=O)N3CCC(C(N)=O)CC3)C2=O)cc1
i	-1.54	O=C(N/N=C/c1ccc(Cl)c([N+](=O)[O-])c1)c1cc(-c2ccc3c4c(cccc24)CC3)n[nH]1
i	-0.68	CC1CN(c2nc3c(c(=O)n(Cc4ccc(Cl)c(Cl)c4)c(=O)n3C)n2C)CC(C)O1 (stereo not drawn)
-6.06*	-0.06*	COc1ccc([N+](=O)[O-])cc1/C=N/NC(=O)CNC(=O)C(c1ccccc1)c1ccccc1
i	1.58	CCCOc1ccc(N/C=C/C(=O)c2ccc(OC)c(OC)c2)cc1
i	-2.04	O=C(N/N=C/c1ccco1)c1ccccc1OCc1ccccc1Cl
i	-2.12	CC1CN(C(=O)CCC(=O)NC(C)c2ccccc2)c2cc(Cl)ccc2O1 (stereo not drawn)
i	0.01	Cn1c(SCC(=O)NCCc2ccccc2)nc2c([nH]c3ccccc32)c1=O
i	0.65	CC(=O)N(c1cccc(Br)c1)c1nc(C)cc(C)c1C#N

Screening results from PubChem.
